Vaccinia inh – blocks a specific stage of Vaccinia orthopoxvirus infection, primary screen, cell-based, single point | Vaccinia-infected cells, mCherry/Venus stage reporter fluorescence; active compounds read low; some inactives read as strong as hits | activity change (mCherry), % (test concentration not listed) | 89,000 compounds, 0.01% hits | AID 1053133, 2014;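 active = mCherry past -33% and 40 or more points under the early reporter, replicates agreeing; inconclusive = past -33% without that gap or agreement; tested in A549 cells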;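 note: scaled between vehicle wells and reference inhibitor wells; 23 nL library stock went into each well; one replicate is shown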
Vaccinia inh Venus – second read-out of Vaccinia inh, no call of its own (marks repeat the call); activity change (Venus), %; measured here: Venus reporter, other viral stage;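 negative = less Venus signal; first of two replicates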
Active calls of the source: *. These rows are one share of the data, so the mix of outcomes need not match the whole.

CC(C)NC(=O)Nc1ccc2c(c1)C(=O)N([C@H](C)CO)C[C@H](C)[C@@H](CN(C)Cc1ccncc1)OCCCC[C@H](C)O2 was read as Vaccinia inh 28 and Vaccinia inh Venus 9.
`C[C@@H]1CN([C@H](C)CO)C(=O)Cc2cc(NC(=O)Nc3ccc(F)cc3)ccc2O[C@H]1CN(C)Cc1ccc(Cl)c(Cl)c1` gave Vaccinia inh inconclusive.
Screening N#C[C@@H]1[C@H](c2ccccc2-c2ccccc2F)[C@H](CO)N1C(=O)C1CCC1 returned Vaccinia inh 3 and Vaccinia inh Venus -1.
For C[C@H]1CN([C@@H](C)CO)C(=O)Cc2cc(NC(=O)Nc3ccc(F)cc3)ccc2O[C@H]1CN(C)CC1CCCCC1 the results were Vaccinia inh inconclusive.
Screening COc1ccc(CN(C)C[C@H]2Oc3c(NC(=O)C4CCCCC4)cccc3C(=O)N([C@@H](C)CO)C[C@@H]2C)cc1 returned Vaccinia inh 3 and Vaccinia inh Venus 0.
`COc1cccc(-c2cnc3c(c2)C(=O)N([C@H](C)CO)C[C@@H](C)[C@H](CN(C)C(=O)CN(C)C)O3)c1` gave Vaccinia inh 3 and Vaccinia inh Venus -1.
For COC(=O)[C@H]1[C@H](CO)[C@H]2Cn3c(ccc(-c4ccc(OC)cc4)c3=O)[C@@H]1N2C(=O)c1ccccc1F the results were Vaccinia inh 2 and Vaccinia inh Venus -3.
For COc1ccc(NC(=O)N2CCCCN3[C@H](C2)[C@@H](c2ccc(C#Cc4ccccc4)cc2)[C@@H]3CO)cc1 the results were Vaccinia inh inconclusive.
C/C=C/c1ccc([C@@H]2[C@@H](CO)N3C(=O)CN(C(=O)NC4CCCC4)C[C@@H]23)cc1 was read as Vaccinia inh -34 and Vaccinia inh Venus -29.
For C[C@H]1CN([C@@H](C)CO)C(=O)c2cc(NC(=O)CCCN(C)C)ccc2O[C@H]1CN(C)S(=O)(=O)c1cccs1 the results were Vaccinia inh -11 and Vaccinia inh Venus -6.
Screening O=C([C@H]1[C@H](CO)[C@H]2Cn3c(cccc3=O)[C@H]2N1Cc1ccncc1)N1CCCCC1 returned Vaccinia inh -30 and Vaccinia inh Venus -11.
For C[C@@H]1CN([C@@H](C)CO)C(=O)c2cccc(NS(=O)(=O)c3cn(C)cn3)c2O[C@H]1CN(C)S(=O)(=O)c1ccc(Cl)cc1 the results were Vaccinia inh -13 and Vaccinia inh Venus -9.
Screening Cc1ccc(S(=O)(=O)N(C)C[C@H]2Oc3c(NC(=O)c4nc5ccccc5s4)cccc3C(=O)N([C@H](C)CO)C[C@H]2C)cc1 returned Vaccinia inh 4 and Vaccinia inh Venus 0.
`COc1ccc(NC(=O)Nc2ccc3c(c2)C(=O)N([C@@H](C)CO)C[C@@H](C)[C@H](CN(C)C(=O)Nc2ccc4c(c2)OCO4)OCCCC[C@@H](C)O3)cc1` gave Vaccinia inh 9 and Vaccinia inh Venus 5.
Screening CCN1[C@@H]2c3ccc(-c4cccnc4)c(=O)n3C[C@H]1[C@H](CO)[C@H]2C(=O)NC1CCCCC1 returned Vaccinia inh 20 and Vaccinia inh Venus 6.
Screening COc1ccc(NC(=O)N2CCCCN3[C@H](CO)[C@H](c4ccc(C5=CCCCC5)cc4)[C@@H]3C2)cc1 returned Vaccinia inh -22 and Vaccinia inh Venus -38.
COc1ccc(-c2ccc3n(c2=O)C[C@H]2[C@H](CO)[C@@H](C(=O)Nc4ccccc4)[C@@H]3N2C)cc1 was read as Vaccinia inh 6 and Vaccinia inh Venus 0.
For C[C@@H]1CN([C@H](C)CO)C(=O)Cc2cc(NS(=O)(=O)c3cccs3)ccc2O[C@@H]1CN(C)Cc1ccc(Cl)c(Cl)c1 the results were Vaccinia inh inconclusive.
For COc1cccc(NC(=O)N(C)C[C@@H]2Oc3ncc(C#Cc4ccc(F)cc4)cc3C(=O)N([C@H](C)CO)C[C@@H]2C)c1 the results were Vaccinia inh -24 and Vaccinia inh Venus -13.
O=C(C[C@H]1C[C@H]2c3cc(NC(=O)CC4CC4)ccc3O[C@H]2[C@@H](CO)O1)NCc1ccncc1 was read as Vaccinia inh 18 and Vaccinia inh Venus 13.
C[C@H](CO)N1C[C@H](C)[C@H](CN(C)Cc2ccncc2)OCCCC[C@H](C)Oc2ccc(NS(=O)(=O)c3ccc(F)cc3)cc2C1=O was read as Vaccinia inh -16 and Vaccinia inh Venus -16.
Cc1cccc(S(=O)(=O)N2CCCCN3[C@@H](CO)[C@H](c4ccc(-c5ccccc5)cc4)[C@@H]3C2)c1 was read as Vaccinia inh -7 and Vaccinia inh Venus -5.
N#C[C@H]1[C@H](c2ccc(-c3ccccc3F)cc2)[C@@H](CO)N1C(=O)C1CCOCC1 was read as Vaccinia inh -6 and Vaccinia inh Venus -8.
`CCC(=O)Nc1ccc2c(c1)OC[C@H](C)N(C(=O)CN(C)C)C[C@H](C)[C@H](OC)CN(C)C2=O` gave Vaccinia inh -1 and Vaccinia inh Venus 1.
`O=C(C[C@H]1CC[C@H](NC(=O)c2cccnc2)[C@@H](CO)O1)NCc1ccncn1` gave Vaccinia inh 13 and Vaccinia inh Venus 2.
COc1ccc2c3c(n(C)c2c1)[C@H](CO)N(C(=O)C1CCCC1)CC31CCN(Cc2cccc(F)c2)CC1 was read as Vaccinia inh inconclusive.
For C[C@H]1CCCCO[C@@H](CN(C)Cc2ccc(C(F)(F)F)cc2)[C@@H](C)CN([C@@H](C)CO)C(=O)c2cc(NC(=O)CCC(F)(F)F)ccc2O1 the results were Vaccinia inh inconclusive.
COc1ccc(NC(=O)N(C)C[C@@H]2Oc3ccc(NC(=O)NC(C)C)cc3CC(=O)N([C@@H](C)CO)C[C@H]2C)cc1 was read as Vaccinia inh -5 and Vaccinia inh Venus -14.
For O=C(C[C@@H]1CC[C@H]2[C@@H](COC[C@H](O)CN2C(=O)Nc2ccc(Cl)c(Cl)c2)O1)NCc1ccccc1 the results were Vaccinia inh -31 and Vaccinia inh Venus -23.
Cc1noc(C)c1S(=O)(=O)N(C)C[C@H]1Oc2ccc(NC(=O)NC(C)C)cc2CC(=O)N([C@H](C)CO)C[C@H]1C was read as Vaccinia inh 17 and Vaccinia inh Venus 11.
CCNC(=O)C[C@H]1CC[C@@H](NC(=O)C2CC2)[C@H](CO)O1 was read as Vaccinia inh 12 and Vaccinia inh Venus 19.
For C[C@@H]1CN([C@H](C)CO)S(=O)(=O)c2ccc(C#CC3(O)CCCC3)cc2O[C@H]1CN(C)C(=O)Cc1cccnc1 the results were Vaccinia inh 25 and Vaccinia inh Venus -4.
For Cn1cnc(S(=O)(=O)N[C@@H]2CC[C@H](CC(=O)N3CCN(c4ccccc4)CC3)O[C@H]2CO)c1 the results were Vaccinia inh -1 and Vaccinia inh Venus 10.
C[C@@H]1CCCCO[C@@H](CN(C)S(=O)(=O)c2ccccc2)[C@@H](C)CN([C@H](C)CO)C(=O)c2cc(NS(=O)(=O)c3ccc(Cl)cc3)ccc2O1 was read as Vaccinia inh -5 and Vaccinia inh Venus 0.
`COc1ccc(S(=O)(=O)N(C)C[C@H]2OCCCC[C@@H](C)Oc3ccc(NS(=O)(=O)c4c(C)noc4C)cc3C(=O)N([C@@H](C)CO)C[C@@H]2C)cc1` gave Vaccinia inh inconclusive.
CN(C)CCCNC(=O)C[C@@H]1C=C[C@@H](NS(=O)(=O)c2ccc(F)cc2)[C@H](CO)O1 was read as Vaccinia inh 8 and Vaccinia inh Venus 11.
COCC(=O)Nc1ccc2c(c1)C(=O)N(C)C[C@@H](OC)[C@@H](C)CN(C(=O)c1ccncc1)[C@@H](C)CO2 was read as Vaccinia inh -1 and Vaccinia inh Venus 5.
For C[C@@H]1CN([C@H](C)CO)C(=O)c2cc(C#CCN(C)C)cnc2O[C@H]1CN(C)C(=O)CCN1CCCCC1 the results were Vaccinia inh 21 and Vaccinia inh Venus 10.
Screening CC(C)NC(=O)N(C)C[C@@H]1Oc2ccc(NC(=O)Nc3cccc4ccccc34)cc2C(=O)N([C@H](C)CO)C[C@H]1C returned Vaccinia inh 8 and Vaccinia inh Venus 12.
Screening CCNC(=O)C[C@H]1CC[C@H]2[C@H](COc3ccc(NC(=O)NC(C)C)cc3C(=O)N2C)O1 returned Vaccinia inh 7 and Vaccinia inh Venus 4.

Copied from the results shown (9 entries):
For C[C@H]1CCCCO[C@@H](CN(C)Cc2ccc(C(F)(F)F)cc2)[C@@H](C)CN([C@@H](C)CO)C(=O)c2cc(NC(=O)CCC(F)(F)F)ccc2O1 the results were Vaccinia inh inconclusive.
COc1ccc(NC(=O)N(C)C[C@@H]2Oc3ccc(NC(=O)NC(C)C)cc3CC(=O)N([C@@H](C)CO)C[C@H]2C)cc1 was read as Vaccinia inh -5 and Vaccinia inh Venus -14.
For O=C(C[C@@H]1CC[C@H]2[C@@H](COC[C@H](O)CN2C(=O)Nc2ccc(Cl)c(Cl)c2)O1)NCc1ccccc1 the results were Vaccinia inh -31 and Vaccinia inh Venus -23.
Cc1noc(C)c1S(=O)(=O)N(C)C[C@H]1Oc2ccc(NC(=O)NC(C)C)cc2CC(=O)N([C@H](C)CO)C[C@H]1C was read as Vaccinia inh 17 and Vaccinia inh Venus 11.
CCNC(=O)C[C@H]1CC[C@@H](NC(=O)C2CC2)[C@H](CO)O1 was read as Vaccinia inh 12 and Vaccinia inh Venus 19.
For C[C@@H]1CN([C@H](C)CO)S(=O)(=O)c2ccc(C#CC3(O)CCCC3)cc2O[C@H]1CN(C)C(=O)Cc1cccnc1 the results were Vaccinia inh 25 and Vaccinia inh Venus -4.
For Cn1cnc(S(=O)(=O)N[C@@H]2CC[C@H](CC(=O)N3CCN(c4ccccc4)CC3)O[C@H]2CO)c1 the results were Vaccinia inh -1 and Vaccinia inh Venus 10.
C[C@@H]1CCCCO[C@@H](CN(C)S(=O)(=O)c2ccccc2)[C@@H](C)CN([C@H](C)CO)C(=O)c2cc(NS(=O)(=O)c3ccc(Cl)cc3)ccc2O1 was read as Vaccinia inh -5 and Vaccinia inh Venus 0.
`COc1ccc(S(=O)(=O)N(C)C[C@H]2OCCCC[C@@H](C)Oc3ccc(NS(=O)(=O)c4c(C)noc4C)cc3C(=O)N([C@@H](C)CO)C[C@@H]2C)cc1` gave Vaccinia inh inconclusive.

(listing goes on)
`CCCNC(=O)C[C@@H]1C[C@H]2c3cc(NC(=O)C4CCC4)ccc3O[C@H]2[C@@H](CO)O1` gave Vaccinia inh 15 and Vaccinia inh Venus 13.
CN1C[C@@H]2[C@H](c3ccccc31)[C@H](CO)N2S(=O)(=O)c1ccccc1 was read as Vaccinia inh 3 and Vaccinia inh Venus 2.
For COc1ccccc1C#Cc1ccc2c(c1)O[C@H](CN(C)Cc1ccncc1)[C@H](C)CN([C@H](C)CO)S2(=O)=O the results were Vaccinia inh -26 and Vaccinia inh Venus -18.
`C[C@@H]1CN([C@@H](C)CO)C(=O)CCCn2cc(nn2)CO[C@H]1CN(C)S(=O)(=O)c1ccc(C#N)cc1` gave Vaccinia inh 24 and Vaccinia inh Venus 12.
`C[C@H](CO)N1C[C@H](C)[C@H](CN(C)Cc2ccc(C(F)(F)F)cc2)Oc2ccc(NS(=O)(=O)c3cn(C)cn3)cc2C1=O` gave Vaccinia inh 9 and Vaccinia inh Venus 10.
Screening C[C@@H]1CN([C@@H](C)CO)S(=O)(=O)c2ccc(-c3ccccc3F)cc2O[C@H]1CN(C)Cc1ccncc1 returned Vaccinia inh inconclusive.
For Cc1ccc(NC(=O)Nc2ccc3c(c2)C(=O)N(C)[C@H]2CC[C@H](CC(=O)O)O[C@H]2CO3)cc1 the results were Vaccinia inh 4 and Vaccinia inh Venus 0.
C[C@@H]1CN([C@H](C)CO)S(=O)(=O)c2ccc(C3=CCCC3)cc2O[C@@H]1CN(C)Cc1ccccc1 was read as Vaccinia inh inconclusive.
CNC[C@@H]1Oc2ccc(NC(=O)NC3CCCCC3)cc2CC(=O)N([C@@H](C)CO)C[C@H]1C was read as Vaccinia inh 16 and Vaccinia inh Venus 5.
For C[C@H]1CN([C@@H](C)CO)C(=O)c2cc(C#CCc3ccccc3)cnc2O[C@@H]1CN(C)Cc1cccnc1 the results were Vaccinia inh -3 and Vaccinia inh Venus -1.
Screening O=C([C@H]1[C@H](CO)[C@H]2Cn3c(cccc3=O)[C@H]2N1CC1CCCC1)N1CCCCC1 returned Vaccinia inh 1 and Vaccinia inh Venus -2.
Cc1noc(C)c1S(=O)(=O)Nc1ccc2c(c1)C(=O)N([C@@H](C)CO)C[C@@H](C)[C@@H](CN(C)Cc1ccc(Cl)c(Cl)c1)OCCCC[C@@H](C)O2 was read as Vaccinia inh inconclusive.
`COc1ccc2c3c(n(C)c2c1)[C@@H](CO)N(Cc1ccccc1)CC31CCN(C(=O)c2ccccc2F)CC1` gave Vaccinia inh 7 and Vaccinia inh Venus 2.
`C[C@H]1CN([C@@H](C)CO)C(=O)c2cc(NC(=O)Nc3ccc(C(F)(F)F)cc3)ccc2O[C@@H]1CN(C)CC1CCCCC1` gave Vaccinia inh 2 and Vaccinia inh Venus 4.
`C[C@@H]1CN([C@@H](C)CO)C(=O)c2c(c3ccccc3n2C)-c2ccccc2CO[C@@H]1CN(C)S(=O)(=O)c1ccsc1` gave Vaccinia inh -22 and Vaccinia inh Venus -18.
`CO[C@H]1CN(C)C(=O)c2ccc(NC(C)=O)cc2OC[C@H](C)N(Cc2ccncc2)C[C@H]1C` gave Vaccinia inh -5 and Vaccinia inh Venus 3.
Screening O=C([C@H]1[C@H](CO)[C@H]2Cn3c(ccc(C4=CCCC4)c3=O)[C@@H]1N2C(=O)c1ccncc1)N1CCOCC1 returned Vaccinia inh 3 and Vaccinia inh Venus 8.
For C[C@@H]1CN([C@H](C)CO)C(=O)c2cc(Br)cnc2O[C@@H]1CN(C)Cc1ccc(F)cc1 the results were Vaccinia inh -4 and Vaccinia inh Venus -5.
For C[C@@H]1CN([C@H](C)CO)C(=O)c2cccc(NC(=O)Nc3ccc4c(c3)OCO4)c2O[C@H]1CN(C)Cc1ccc2c(c1)OCO2 the results were Vaccinia inh -21 and Vaccinia inh Venus -12.
Screening O=C(NCC[C@H]1CC[C@@H](NC(=O)C2CCC2)[C@H](CO)O1)c1cc(Cl)cc(Cl)c1 returned Vaccinia inh 1 and Vaccinia inh Venus 6.

Assay outcomes: PubChem BioAssay, Broad Institute
